Source: PubChem (National Center for Advancing Translational Sciences (NCATS))
StopGo reporter – High Throughput Screening for Foot and Mouth Disease Virus Antivirals; human cells with a luciferase reporter of 2A StopGo recoding; control for the full effect not named in the record; Potency, µM (highest dose often 57.9 µM), without a hit: top-dose signal change, negative = less light; 410,000 compounds, 1.2% hits; active = well fitted falling curve with a large enough effect; inconclusive = small, poorly fitted or top-dose-only effect; inactive = no such curve, though single readings can be large or run the other way; tested in HEK293T cells; note: % is set by controls: 0 for no effect and ±100 for the full control effect; nearly all actives have a fitted effect of over 45% in size; luciferase light after 4 h
SARS PLP yeast – qHTS of Yeast-based Assay for SARS-CoV PLP. S. cerevisiae expressing SARS-CoV PLpro, growth rescue; control for the full effect not named in the record. Potency, µM (highest dose often 32.9 µM), inactives show at the highest dose activity, positive = growth rescue. 330,000 compounds, 0.19% hits; note: 0% is about no effect; nearly all actives have a fitted effect of over 55% in size; growth read by luminescence after 48 h
Lassa entry inh – qHTS for Inhibitors of binding or entry into cells for Lassa Virus; 300,000 compounds, 1.2% hits; Potency, µM (doses to about 37.9 µM), for inactives: top-dose activity change, negative = inhibition, actives largely listed as inhibitors; Lassa virus pseudotype entry inhibition, cell reporter; control for the full effect not named in the record; AID 540256, 2011; active means well fitted inhibition curve with a large enough effect; inconclusive means small, poorly fitted or top-dose-only effect, or effect the other way; inactive means flat fitted curve, though single readings scatter; tested in HEK293 cells; note: % is set by controls: 0 for no effect and ±100 for the full control effect; nearly all actives have a fitted effect of over 50% in size; luciferase read-out
NS1 function inh – qHTS Assay for Inhibitors of Influenza NS1 Protein Function; S. cerevisiae slowed by influenza A NS1, growth recovery by OD600; Potency, µM (highest dose often 46.1 µM), for the others: at the top dose activity, positive = more growth; 270,000 compounds, 0.4% hits; AID 2326, 2010; note: actives are rising curves; nearly all actives have a fitted effect of over 50% in size
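A cell-based growth assay was used: compounds that relieve NS1-induced slow growth of budding yeast raise OD600. Assay medium was yeast nitrogen base with ammonium sulphate and -URA supplement, pH 6.0, with 2% galactose.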
Marburg entry inh – qHTS for inhibitors of binding or entry into cells for Marburg Virus | Potency, µM (top dose mostly 37.8 µM), for inactives: at the top dose activity change, negative = inhibition, most hits filed as inhibitors | 300,000 compounds, 1.8% hits | Marburg virus pseudotyped entry inhibition, cell reporter; control for the full effect not named in the record; about a third of the inactives were read at about 46 µM; active = well fitted inhibition curve with a large enough effect; inconclusive = small, poorly fitted or top-dose-only effect, or effect the other way; inactive = flat fitted curve, though single readings scatter; tested in HEK293 cells; about a fifth of its hits are not listed in these tables; note: % is set by controls: 0 for no effect and ±100 for the full control effect; luciferase read-out
RE007 growth inh – qHTS Assay for Inhibitors of the HIV-1 protein Vpr; S. pombe RE007 Vpr strain, BacTiter-Glo ATP luminescence, 24 h; control for the full effect not named in the record; Potency, µM (doses to about 92.2 µM), for inactives: at the highest dose activity change, negative = less growth; 360,000 compounds, 0.21% hits; active = well fitted falling curve with a large enough effect; inconclusive = small, poorly fitted or top-dose-only effect; inactive = no such curve, though single readings can be large or run the other way;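 note: % is set by controls: 0 for no effect and ±100 for the full control effect; nearly all actives have a fitted effect of over 50% in size; the assay follows cell death caused by Vpr and the record does not say whether a fall means rescue or toxicity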
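Fission yeast RE007 carrying one integrated HIV-1 vpr copy, seeded at OD 0.01 in PMG+AL medium with 23 nL pinned compound. Grown 24 h at 30 degrees; viability read by BacTiter-Glo luminescence after 5 min.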
Cruzain inh Det – qHTS Assay for Promiscuous and Specific Inhibitors of Cruzain (with detergent) | purified cruzain, Z-FR-AMC fluorescence, 0.01% Triton | Potency, µM, for the others: max response, negative = inhibition, usual class: inhibitors | 200,000 compounds, 0.43% hits | AID 1478, 2009; active = well fitted curve in the direction sought with a large enough effect; inconclusive = small, poorly fitted or top-dose-only effect, or another doubt; inactive = no such curve, though single readings can be large; an effect the other way counts as inactive or inconclusive;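 note: plate controls were neutral wells for no effect and buffer without enzyme for full effect; nearly all actives have a fitted effect of over 40% in size; top concentration of the series not given in the record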
Target sequence (P25779 123-467 limits assumed): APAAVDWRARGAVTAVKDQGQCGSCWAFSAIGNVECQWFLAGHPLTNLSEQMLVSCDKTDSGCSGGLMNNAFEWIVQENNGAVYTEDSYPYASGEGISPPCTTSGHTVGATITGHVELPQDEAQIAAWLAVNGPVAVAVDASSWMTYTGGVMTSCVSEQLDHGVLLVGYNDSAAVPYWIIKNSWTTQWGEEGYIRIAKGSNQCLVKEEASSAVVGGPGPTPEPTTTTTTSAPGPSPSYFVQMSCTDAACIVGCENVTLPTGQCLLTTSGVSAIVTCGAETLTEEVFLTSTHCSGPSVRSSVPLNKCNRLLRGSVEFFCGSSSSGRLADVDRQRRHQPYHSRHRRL
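15 min RT preincubation of 1.5 nM cruzain with compound, then 2 uM Z-FR-AMC added; kinetic AMC fluorescence, 60 s delta. Triton X-100 0.01%, pH 5.5.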
Cruzain noTriton – qHTS Assay for Promiscuous and Specific Inhibitors of Cruzain (without detergent). Cruzipain (Trypanosoma cruzi), P25779. purified cruzain, Z-FR-AMC fluorescence, no detergent. Potency, µM, for inactives: max response, negative = inhibition, hits mostly inhibitors. 200,000 compounds, 2.3% hits; active = well fitted curve in the direction sought with a large enough effect; inconclusive = small, poorly fitted or top-dose-only effect, or another doubt; inactive = no such curve, though single readings can be large; an effect the other way counts as inactive or inconclusive;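 note: plate controls were enzyme without inhibitor for no effect and buffer without enzyme for full effect; nearly all actives have a fitted effect of over 40% in size; top concentration of the series not given in the record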
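Purified cruzain at 1.5 nM, pre-incubated 15 min with compound at room temperature in 100 mM sodium acetate pH 5.5, 5 mM DTT, 0.00005% Triton X-100. Reaction started with 2 uM Z-FR-AMC; AMC fluorescence increase over 60 s gives rate.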
* marks the source's active call; other numbers are inactive results; ? = inconclusive; · = not tested or not shown; & = joins results of further samples; [ ] = dose if it differs, or a comment. Unless noted, calls come from the whole dose curve; as a rule, active means well fitted rising curve with a large enough effect; inconclusive means small, poorly fitted or top-dose-only effect; inactive means no such curve, though single readings can be large or run the other way. Potency is the fitted concentration of half-maximal effect.

SMILES | StopGo reporter | SARS PLP yeast | Lassa entry inh | NS1 function inh | Marburg entry inh | RE007 growth inh | Cruzain inh Det | Cruzain noTriton
COc1ccc2sc(N(CCCN(C)C)C(=O)c3nc4ccccc4s3)nc2c1 | 0% | -5% | 28% | · | 10%[46.1 µM] | 4% | · | ·
CC(=O)NC1=NN(C(C)=O)C(C)(CS(=O)(=O)c2ccc(Cl)cc2)S1 (stereo not drawn) | 16% | 9% | 5% | 7%[9.22 µM] | 9%[46.1 µM] | 23% | -0.1% | 3%
Cc1cc(C)n(C(C)CC(=O)Nc2cccc(C#N)c2)n1 (stereo not drawn) | -15% | · | ? | · | · | · | -1.8% | -1%
CCOc1ccc(C2NC(=O)c3ccccc3O2)cc1 (stereo not drawn) | 15% | 3% | 8% | -10% | 18% | 47% | 2.1% | 1%
C/C=C/C(=O)OCC(=O)Nc1c(Cl)cccc1Cl | 8% | -14% | -1% | -32% | -8% | 3%[3.69 µM] | 5.1% | -8%
CC1CCCCC12NC(=O)N(CC(=O)OCc1ccccc1Cl)C2=O (stereo not drawn) | ? | 0% | -18%[46.1 µM] | · | -15% | 1% | · | ·
Cc1ccccc1NC(=O)COC(=O)Cc1ccsc1 | -19% | -1% | -1% | · | ? | -12% | · | ·
Cc1cc(C)c(C)c(S(=O)(=O)N2CCC(C(=O)N3CCCCCCC3)CC2)c1C | ? | 7% | · | 15% | · | -3% | · | ·
CC1CCCCN1C(=O)Nc1cccc(Cl)c1 (stereo not drawn) | 25% | 0% | -13% | -7% | 13% | -1% | 6.2% | 19%
NC(=O)C1CCN(C(=O)c2ccc3c(=O)n(Cc4ccco4)c(SCc4ccc([N+](=O)[O-])cc4)nc3c2)CC1 | 7% | 7% | · | 27% | · | 2% | · | ·
Cc1ccccc1CS(=O)(=O)c1cn(CC(=O)N2CCC(C)CC2)c2ccccc12 | ? | -14% | -7% | -23% | 0% | 11% | -2.8% | 0%
CC(=O)c1ccc(NC(=O)C2CCN(S(=O)(=O)c3cccnc3)CC2)cc1 | -3% | 11% | · | -19% | · | 7% | · | ·
CN1CCN(C(=O)c2cc3cc(Cl)ccc3[nH]2)CC1 | 31%[activator] | 4% | · | 4% | · | 7% | · | ·
COc1ccc(CC2(CO)CCN(Cc3nc(C(C)C)cs3)CC2)cc1 | ? | 0% | -23% | 0% | 19%[46.1 µM] | 1% | · | ·
O=C(O)c1ccc(-c2sc(Nc3ccccc3)n[n+]2-c2ccccc2)cc1 | -3% | 8% | · | 11% | · | 5% | · | ·
CN(C)C(CNC(=O)c1cc(S(=O)(=O)N(C)c2ccccc2)ccc1Cl)c1ccccc1 (stereo not drawn) | -28% | 0% | ? | -3% | ? | -2% | · | ·
COc1cccc(NC(=O)Cn2c(=O)n(Cc3ccccc3)c(=O)c3c2c2cc(C)ccc2n3C)c1 | 3% | · | 4%[46.1 µM] | · | · | · | -0.3% | 0%
C/C(=N\Nc1cc(C)nc(NCc2ccccc2)n1)c1cccc([N+](=O)[O-])c1 | 0% | 0% | · | -2% | · | -8% | · | ·
C/C(=N\OC(=O)c1ccc(C)cc1)c1c(C)nc2cc(C)ccn12 | -14% | 1% | 6%[46.1 µM] | · | 2%[46.1 µM] | -17% | · | ·
COc1ccc(S(=O)(=O)N2CC(=O)Nc3ccccc32)cc1Cl | 2% | -6% | 13% | -7% | 24% | -9% | · | ·
Cc1c(N=C(N)/N=C(\N)Nc2ccc(Br)cc2)c(=O)n(-c2ccccc2)n1C | -31% | -19% | -4% | 9% | 15% | ? | -13% | -5%
Cc1cc(C)nc(NS(=O)(=O)c2ccc(NC(=O)C3(c4ccccc4)CCCC3)cc2)n1 | 27% | 18% | -4% | -4% | 7% | 4% | -3.2% | 16%
CCN1CCN(C(=O)C2CCC(=O)N(CCCN3CCCC3=O)C2)CC1 (stereo not drawn) | 15% | -1% | · | 12% | · | 3% | · | ·
COc1ccccc1N1CCN(CCN2C(=O)CC(=C3c4ccccc4-c4ccccc43)C2=O)CC1 | 2% | · | 19% | · | -4% | -17% | · | ·
Cc1cc(=O)oc2cc(OCC(=O)N3CCN(c4ccc(F)cc4)CC3)ccc12 | -23% | -4% | · | -14% | · | -4% | · | ·
Cc1cc(NC(=O)CSc2nc3cc(Cl)ccc3s2)no1 | 6% | 0% | 0% | -4% | 3% | 4% | 1.4% | 10µM*
C=CCNC(=O)c1ccc(OC)cc1OC | 11% | -3% | 9% | -1% | ? | 3% | 3.6% | -2%
Cc1[nH]nc(Sc2ccccn2)c1[N+](=O)[O-] | 44%[activator] | 5% | ? | 5% | 3% | -6% | -3.3% | -7%
CCOC(=O)c1c(NC(=O)c2nc(SCC)ncc2Cl)sc(C(C)=O)c1C | 10% | · | ? | · | 6%[46.1 µM] | · | -2.0% | 3%
Fc1ccc(-n2c(-c3cc(C4CC4)[nH]n3)n[nH]c2=S)cc1Cl | 28% | 1% | 4% | -11% | 6%[46.1 µM] | -7% | · | ·
O=C(c1noc2c1CCCC2)N1CCN(c2ccc(F)cc2)CC1 | -3% | -6% | -3% | -8% | ? | ? | -0.8% | 14%
O=C(Nn1c(C2CCC2)nc2ccccc2c1=O)C1CCC1 | 12% | 9% | 9% | -10% | -1% | 21% | 4.8% | 1%
O=C(NCCCn1ccnc1)/C(=C\c1ccc(Br)cc1)NC(=O)c1ccccc1F | 4% | 0% | 9% | 2% | -10% | -19% | · | ·
CC(=O)Nc1cccc(NC(=O)CSc2nnc(NC(=O)C3CC3)s2)c1 | -19% | 6% | · | 26% | · | 6% | · | ·
O=C(Cc1ccccc1)N/N=C/c1ccc(Cl)cc1Cl | 0% | 0% | 5% | 5% | 2% | 11% | -0.6% | -2%
O=C(N/N=C(\c1ccccc1)c1ccccn1)c1ccccc1Cl | ? | 3% | ? | -120% | ? | 30% | · | ·
COc1cc(C2CC(=O)Oc3c2c(=O)n(C)c2ccccc32)ccc1O (stereo not drawn) | -25%&-8% | 0% | 29%&-3%[46.1 µM] | 5% | 8%&-1%[46.1 µM] | -12% | -4.1% | 9%
COc1ccc(Nc2cccc(Cl)c2)c(C(=O)O)c1 | -8% | -15% | ? | -35% | ? | -11% | -6.5% | -1%
Cc1c(NC(=O)C(C)Sc2ncnc3ccccc23)c(=O)n(-c2ccccc2)n1C (stereo not drawn) | 2% | 1% | -3%[46.1 µM] | · | 0%[46.1 µM] | 9% | · | ·
CCCCCCN1N=C(C)C(C(=O)c2ccc(Cl)cc2)C1=O (stereo not drawn) | -9% | 23% | 10% | -116% | -27% | -8% | -2.1% | 4%
CCOc1cc(/C=N/n2c(COc3ccccc3)n[nH]c2=S)ccc1O | 0% | -3% | · | 12% | -6% | 1% | · | ·
O=C(NC1(C(F)(F)F)NC(=O)N(Cc2cccnc2)C1=O)c1ccccc1 (stereo not drawn) | -17% | 0% | -4% | 4% | 1% | 1% | -2.3% | -1%
O=C1N/C(=N/O)S/C1=C/c1cccc([N+](=O)[O-])c1 | 11% | -3% | 0% | · | 4%[46.1 µM] | -12% | · | ·
O=P1(c2ccccc2)C=Cn2c1cc1c2CCCC1 (stereo not drawn) | · | 3% | 1% | -8% | 11% | -1% | 1.0% | -2%
CC1(C)CCC2=C(O1)c1ccccc1C(=O)C2=O | ? | · | · | -1% | 13µM* | · | -9.4%&-17% | -12%&4%
O=C1CCc2cc(S(=O)(=O)N3CCC(C(=O)NC4CCCc5ccccc54)CC3)ccc2N1 (stereo not drawn) | 9% | 1% | · | -60% | 0% | 10% | 3.5% | ?
CCc1ccccc1NC(=O)N1CCCC(CCC(=O)N(C)CCc2ccccn2)C1 (stereo not drawn) | -1% | -1% | · | 0% | · | 7% | · | ·
O=C(O)CCNC(=O)CCCn1nnc2ccccc2c1=O | -5% | 0% | · | 3% | · | -1% | · | ·
CCOC(=O)c1cc2nc(OCC)nc(OCC)c2[nH]1 | 2% | · | ? | · | ? | -10% | · | ·
Cc1c(C(=O)OCc2ccccc2)[nH]c2c1C(=O)CC(c1ccc(C(C)(C)C)cc1)C2 (stereo not drawn) | ? | · | 24%[46.1 µM] | · | 13%[46.1 µM] | · | -1.6% | -9%
O=C(Nc1ccncc1)c1ccc(NS(=O)(=O)c2cccc(F)c2)cc1 | ? | 26% | ? | 9% | ? | -7% | -3.9% | 14%
CN(C)c1nc(C(=O)Nc2ccccc2)nc(N(C)C)n1 | 9% | -6% | ? | -8%[9.22 µM] | -10%&-2% | 8% | 1.3% | 0%
O=C(Nc1cc2c(cc1Cl)OCCCO2)c1ccc(F)cc1 | 11% | 14% | 0% | 8% | 4% | 0% | -0.2% | 0%
CC(C)CCNC(=O)C1CCN(Cc2cccc(OCc3ccccc3)c2)CC1 | -15% | 1% | ? | -4% | ? | -8% | · | ·
CC(=O)c1ccc(N2CCN(C(=O)c3c(-c4ccccc4Cl)noc3C)CC2)cc1 | ? | 6% | -19% | 7% | -15% | -18% | · | ·
Cc1csc2c(N3CCN(C(=O)Nc4ccc(Cl)c(Cl)c4)CC3)ncnc12 | ? | -4% | -9%[46.1 µM] | -30% | -8%[46.1 µM] | 6% | · | ·
CCCCCCC(C)n1cc(C(C)=O)c(=O)[nH]c1=O (stereo not drawn) | -22% | 2% | 2% | 5% | 18% | 1% | 5.8% | 2%
C/C(Cn1cnc([N+](=O)[O-])n1)=N\NC(=O)c1ccccc1F | 18% | · | ? | · | 26% | 18% | · | ·
Cc1cc(NC(=O)Cn2nnc3sc4c(c3c2=O)CCC(C(C)(C)C)C4)no1 (stereo not drawn) | -14% | -17% | -2% | -35% | -16% | -2% | -10% | -5%
